Screens (PubChem)
RanGTP-Impb inh – disruptors of Ran-importin-beta complex formation – biochemical, FRET, CFP-Ran, YFP-importin-beta, homogeneous, primary screen; cell-free CFP-Ran/YFP-importin-beta FRET ratio; inhibition, % (concentration not given with the values); actives 1.1% (n = 300,000); AID 2216;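 active = most replicates above 15%; inconclusive = exactly half above 15%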;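 note: 0% = DMSO wells and 100% = Ran loaded with GDP instead of GTP; wells of about 40 µL received 100 nL stock; the first replicate is given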
E coli growth – blocks Escherichia coli growth; OD600, 23 h; active compounds read low; OD600 absorbance (concentration not given with the values); actives 0.21% (n = 330,000); AID 1053175;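 active = OD600 absorbance below the run mean of sample wells minus 3.6 SD, in any replicate, cut at about 0.56 in these data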;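 note: stock transfer was 300 nL into about 60 µL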
FGF22 binding – shifts melting point of recombinant human FGF22. Q9HCT0. recombinant FGF22 thermal shift, SYPRO orange fluorescence; percent of sucrose octasulfate shift, DMSO zero. calls only at 9.99 µM. actives 1.5% (n = 340,000). AID 651658;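 active = melting point raised past a set limit in the mean and every replicate; inconclusive = no clear call; three in four hits are not shown here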
AF4-AF9 inh – inhibitors of human MLL-AF4/AF9 interaction; AlphaScreen, biotin-AF4 peptide binding to FLAG-AF9; inhibition, % at 10 µM; actives 0.47% (n = 350,000);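 active = every replicate reaching a set inhibition limit, whatever the replicate mean, cut at about 25% in these data; inconclusive = mean inhibition reaches that limit but some replicates miss it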;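 note: 0% = plate neutral control median and 100% = total signal loss; the record names both 10 and 1 µM as test concentration; the first replicate is given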
Target sequence (P42568 whole entry, looked up): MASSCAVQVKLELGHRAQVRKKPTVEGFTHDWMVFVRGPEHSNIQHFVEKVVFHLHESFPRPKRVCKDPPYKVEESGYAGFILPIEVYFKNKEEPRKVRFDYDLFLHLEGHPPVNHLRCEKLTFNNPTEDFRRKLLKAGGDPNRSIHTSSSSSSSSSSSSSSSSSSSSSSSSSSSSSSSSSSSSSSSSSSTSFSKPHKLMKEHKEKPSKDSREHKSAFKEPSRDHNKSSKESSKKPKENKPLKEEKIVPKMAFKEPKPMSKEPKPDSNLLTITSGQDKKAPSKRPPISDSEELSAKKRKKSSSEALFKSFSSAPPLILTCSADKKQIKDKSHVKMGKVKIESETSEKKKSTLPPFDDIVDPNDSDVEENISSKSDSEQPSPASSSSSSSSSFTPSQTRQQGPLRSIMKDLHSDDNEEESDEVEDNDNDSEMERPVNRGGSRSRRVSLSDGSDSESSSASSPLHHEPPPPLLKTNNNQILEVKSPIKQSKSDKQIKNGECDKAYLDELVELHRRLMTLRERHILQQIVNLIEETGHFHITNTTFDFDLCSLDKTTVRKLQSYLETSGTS
HNF4A DNA FP – change in binding of human HNF4 alpha to DNA | HNF4a-FITC DNA binding, fluorescence polarization, 1 h | P41235 | activity change, % at 10 µM | AID 1224865 | actives 0.3% (n = 360,000); in the data active = activity change above about 30%, passing the limit was not always enough;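 note: controls were the assay level and a saturating level of protein; the project sought stronger binding though the title names inhibitors; some compounds called inactive have numbers as strong as hits; positive values seem to mean higher polarization but the record does not say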
Target sequence (P41235 whole entry, looked up): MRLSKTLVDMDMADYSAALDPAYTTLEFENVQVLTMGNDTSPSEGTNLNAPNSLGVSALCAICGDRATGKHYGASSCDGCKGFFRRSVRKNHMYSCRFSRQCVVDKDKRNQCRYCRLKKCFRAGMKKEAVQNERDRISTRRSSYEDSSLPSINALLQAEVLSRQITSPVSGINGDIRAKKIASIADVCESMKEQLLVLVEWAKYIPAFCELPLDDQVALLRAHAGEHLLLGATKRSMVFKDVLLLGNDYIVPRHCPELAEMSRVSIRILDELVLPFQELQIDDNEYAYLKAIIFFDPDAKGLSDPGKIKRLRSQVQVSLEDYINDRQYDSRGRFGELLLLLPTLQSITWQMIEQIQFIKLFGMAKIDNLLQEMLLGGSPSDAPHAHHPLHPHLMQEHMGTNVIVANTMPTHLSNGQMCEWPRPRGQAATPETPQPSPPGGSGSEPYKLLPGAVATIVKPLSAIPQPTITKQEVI
Vif TR-FRET – inhibitors of Vif binding to APOBEC3G peptide, primary screen, biochemical, TR-FRET, GST-Vif 1-94, biotin-A3G peptide, dose response retest (AID 1117319); inhibition, %, or IC50 in µM where a hit was titrated; actives 0.57% (n = 260,000); TR-FRET GST-Vif / biotin-A3G peptide binding; higher % means a stronger effect; test concentration not given here; strong numbers were not always called active;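 active = above the screen mean plus three standard deviations and confirmed in dose response; inconclusive = results disagree or hit not tested in dose response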;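 note: Vif residues 1-94 fused to GST binding biotinylated APOBEC3G peptide 110-148; 0% = full assay without inhibitor and 100% = GST in place of GST-Vif; retest series ran down from 100 µM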
UCH37 DUB inh – inhibitors of human deubiquitinating enzyme UCH37; Q9Y5K5; purified proteasome/UCH37, Ub-AMC cleavage fluorescence; inhibition, % (no concentration beside the values); actives 0.33% (n = 330,000);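 active = mean of two replicates above 20%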;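 note: 0% = compound-free wells with enzyme and 100% = wells lacking proteasome; stock transfer was 100 nL into about 20 µL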
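system = Proteasome-associated human UCH37 deubiquitinase | amount = 0.15 nM proteasome as dispensed | medium = pH 7.4 Tris-HCl (50 mM) with ovalbumin, ATP-MgCl2, DTT | incubation = 30 min preincubation with enzyme, 25 min cleavage at room temperature | detection = AMC fluorescence 355/460 nm | read-out basis = percent inhibition | controls = no-proteasome and no-compound wells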
Active calls of the source: *; i = inactive; ? = inconclusive; . = not tested or not shown; & = joins results of further samples. These rows are one share of the data, so the mix of outcomes need not match the whole.

The line under a structure holds: RanGTP-Impb inh, E coli growth, FGF22 binding, AF4-AF9 inh, HNF4A DNA FP, Vif TR-FRET, UCH37 DUB inh
(1) CN1c2ccccc2C(C)(C)C12CC(c1cccc(S(=O)(=O)N3CCCC3)c1)=NO2 (stereo unspecified)
 : -1.3, 0.69, ., ., 6.4, -30%, -2.9
(2) Cc1cc(C)cc(OCC(=O)NCC2CCCO2)c1 (stereo unspecified)
 : 2.2, 0.64, ., ., 1.1, 6%, 0.8
(3) Cc1cc(C)c(C#N)c(OCC(=O)Nc2ccccc2)n1
 : 1.7, 0.7, ., ., -1.8, 1%, 0.0
(4) CCOC(=O)c1cc(C(C)C)sc1NC(=O)COC(=O)c1nccnc1N
 : -3.6, ., i, -29, 2.4, ., .
(5) C/C(=C(/CCO)SSCC1CCCO1)N(C=O)Cc1cnc(C)nc1N (stereo unspecified)
 : ., ., i, -2.9, 4.0, ., -0.2
(6) CCc1nccn1CCC(=O)N1CCc2c([nH]c3ccccc23)C1CC(C)C (stereo unspecified)
 : 2.9, 0.7, i, 13, 2.5, -3%, -11
(7) C=CCN(Cc1nc(-c2cc(OC)c3c(c2)OCO3)oc1C)C1CCS(=O)(=O)C1 (stereo unspecified)
 : -2.9, 0.71, i, 1.4, 1.9, 5%, 4.1
(8) C=C(C)C1Cc2c(C)nn(-c3ccccc3)c2C1 (stereo unspecified)
 : 1.6, 0.65, ., ., 0.3, ?, 5.1
(9) CCOC(=O)C1=NN(C(=O)c2ccc(OC)cc2)C(O)(c2ccc(Cl)cc2)C1 (stereo unspecified)
 : ?, 0.69, i, -1.0, 0.6, 1%, 3.2
(10) O=C(c1cc(=O)[nH]c2ccccc12)N(Cc1nnc(-c2ccccc2Cl)o1)C1CC1
 : -3.0, 0.68, i, 2.2, 5.6, 4%, -10
(11) Cn1c(N2CCOCC2)c(C=O)c2ccccc21
 : 4.1, 0.67, i, -4.2, -2.3, -6%, -7.0
(12) COC(=O)c1cc(CNC(=O)c2ccccc2OCc2c(C)noc2C)ccc1OC
 : -1.5, 0.7, i, 1.2, 4.4, 2%, 4.7
(13) CCCCOc1ccc(C(=O)NCC2(c3ccccc3)CCOCC2)cc1
 : 3.1, 0.74, ., ., 5.3, 10%, 4.5
(14) C/C(Cn1cnc([N+](=O)[O-])n1)=N/NC(=O)COc1c(Cl)cc(Cl)cc1Cl
 : 1.4, ., i, 0.8, -3.4, 23%, .
(15) CCc1nc2ccc(C(=O)NCCNC(C)=O)cn2c1N(CCC(C)C)CCN(C)C
 : ., ., i, 2.8, -1.8, ., .
(16) Cc1c(NC(=O)c2cc(-c3ccco3)on2)c(=O)n(-c2ccccc2)n1C
 : ., 0.72, ., ., -1.6, ?, 0.9
(17) Cc1ccc(COc2ccc(C(=O)NN)cc2)cc1
 : 4.1, 0.68, ., 0.4, 13, ., 4.0
(18) C=CCn1c(SCC(=O)Nc2cccnc2Cl)nnc1-c1ccc(C(C)(C)C)cc1
 : 0.5, 0.73, ., ., -2.0, ., 1.9
(19) Cc1sc2ncnc(N3CCC(C(=O)Nc4nnc(SCc5ccccc5F)s4)CC3)c2c1C
 : -6.4, 0.69, i, -2.0, 2.1, -9%, -0.2
(20) O=C(Cc1sc(-c2ccccc2Cl)nc1-c1ccccc1)Nc1ccccc1
 : 4.7, 0.68, ., ., 4.0, -25%, 4.6
(21) CCOC(=O)c1ccc(Oc2cc(C)nc(Cl)n2)cc1
 : -1.3, 0.68, i, -1.3, 2.0, 3%, 2.6
(22) Cn1c(NC(=O)/C=C/c2ccccc2)cc(=O)n(C)c1=O
 : 2.3, ., ., ., -0.5, 14%, 3.0
(23) CN(C(=O)c1cccc(NC(=O)Cc2ccc(NC(=O)C3CCN(S(=O)(=O)c4cccc([N+](=O)[O-])c4)CC3)cc2)c1)C1CCC1
 : ., 0.7, i, -2.2, 1.1, 4%, 3.4
(24) Cc1cccc(NC(=S)NC(=O)C(c2ccccc2)c2ccccc2)n1
 : -1.4, 0.71, ., ., -1.6, -7%, 2.1
(25) COCCN(C(=S)Nc1cccc(C)c1)C(C)c1cccs1 (stereo unspecified)
 : -2.6, 0.65, i, -7.0, 0.5, -3%, 1.5
(26) CCC(=O)N(C1=C(NC)C(=O)c2ccccc2C1=O)C(C)C
 : -2.1, 0.69, i, 0.4, -3.2, -3%, 33*
(27) COCCn1c(SCC(=O)NC2CC2)nnc1-c1ccc(Cl)cc1
 : ., 0.69, i, -7.4, 0.2, -15%, 2.2
(28) COc1ccccc1Nc1nc2ccccc2n2cnnc12
 : 3.9, 0.69, i, -7.1, 1.5, -47%, -32
(29) Cc1sc2ncnc(N3CCC(C(=O)Nc4ccc(S(N)(=O)=O)cc4)CC3)c2c1C
 : ., 0.7, i, 2.4, 3.4, 5%, 2.8
(30) CC1CN(C(=O)Nc2cccc(Cl)c2)C2(CCCCCC2)O1 (stereo unspecified)
 : 3.7, 0.72, i, -1.6, 0.5, ., 5.3
(31) COc1ccc(NC(=O)C2Cc3c(-c4cccc(NC(C)=O)c4)ccnc3O2)cn1 (stereo unspecified)
 : ., ., i, 2.5, -4.3, ., .
(32) N#Cc1c(C(F)(F)F)cc(-c2ccccc2Cl)[nH]c1=O
 : -6.1, 0.66, ., ., 2.1, 4%, -476
(33) CN(C)C(=O)c1ccc(NC(=O)COC(=O)C2=COCCO2)cc1
 : -0.3, 0.68, i, -1.7, 1.2, 0%, 2.3
(34) COc1cccc(COCC(O)Cn2cnc3cc(C)c(C)cc32)c1 (stereo unspecified)
 : 0.4, 0.71, i, -0.6, -3.8, 13%, 0.8
(35) CS(=O)(=O)Nc1cccc(C2=NN(S(C)(=O)=O)C(c3ccccc3)C2)c1 (stereo unspecified)
 : 3.0, 0.7, i, -9.6, 24, 4%, 3.5
(36) COCCNC(=O)CN(Cc1ccccc1)S(=O)(=O)c1ccc2nc(C)sc2c1
 : -0.2, 0.66, i, -0.7, 0.8, -4%, 6.6
(37) CCOC(=O)C1CCN(C(=O)Cc2ccc(OC)c(OC)c2)CC1
 : -2.6, 0.7, ., ., -0.6, ?, -2.6
(38) C=CCNC(=O)c1cc2c(=O)n3cccc(C)c3nc2s1
 : 1.4, 0.68, i, -1.7, 5.4, 4%, -473
(39) CC(=O)Nc1ccc(S(=O)(=O)NC2(C(F)(F)F)C(=O)Nc3c2c(=O)n(C)c(=O)n3C)cc1 (stereo unspecified)
 : 5.9, 0.72, i, -14, 1.4, -2%, 2.6
(40) COc1ccc(OC)c(N(CC(=O)NCC2CCCO2)S(=O)(=O)c2ccccc2)c1 (stereo unspecified)
 : 3.9, 0.68, i, 1.2, 0.4, -4%, 6.1
(41) COc1ccc(N(CC(=O)NCc2cccs2)S(=O)(=O)c2c(C)n[nH]c2C)cc1
 : 4.7, 0.71, ., ., 0.4, 4%&9%, 2.4
(42) Cc1cccc(NC(=S)NCCN2CCOCC2)c1
 : 0.3, 0.68, i, 5.3, 3.7, -6%, 3.2
(43) COC(=O)[C@@H](Cc1ccccc1)N(Cc1ccccc1)S(=O)(=O)N(Cc1ccccc1)[C@H](Cc1ccccc1)C(=O)OC
 : ., ., i, 0.8, 0.5, ., 1.2
(44) CC(=O)NC1CC2CCC(C1)N2Cc1ccc(C)cc1 (stereo unspecified)
 : 2.9, 0.69, ., ., 20, -7%, 0.4
(45) Cc1c(N=C2C=CC(=O)c3ccccc32)c(=O)n(-c2ccccc2)n1C
 : -1.6, 0.66, i, 35*, 0.0, 25%, 61*
(46) O=C(Cc1ccc([N+](=O)[O-])cc1)NCc1ccc2c(c1)OCO2
 : 7.9, 0.71, i, 3.5, 2.7, -7%, 1.4
(47) CCCc1cc(=O)n2[nH]cc(-c3ccc(Cl)cc3)c2n1
 : 1.6, 0.35*, i, 2.2, -0.3, ., -29
(48) Cc1ccc(S(=O)(=O)NCC(C)NS(=O)(=O)c2ccc(C)cc2)cc1 (stereo unspecified)
 : 1.3, 0.73, ., ., -3.8, -1%, 3.8
(49) O=C(NCC(=O)N1CCCC(C(F)(F)F)C1)c1ccc2ccccc2c1 (stereo unspecified)
 : 2.7, 0.71, i, -4.5, -0.6, -6%, 0.0
(50) CCCCNC(=O)Cc1c(O)c2ccccc2[nH]c1=O
 : -3.6, 0.74, ., ., -2.0, 3%, -0.2
(51) O=C(Nc1nnc(-c2ccncc2)o1)c1ccccc1F
 : 6.3, 0.74, i, 0.5, -3.0, -2%, 0.1
(52) O=C(Nc1ccccc1N1CCCC1)c1cccc(-c2cc3ccccc3oc2=O)c1
 : -3.8, 0.74, ., ., 3.7, ., 4.5
(53) COc1cc(Nc2nc3c(N)cc(C(F)(F)F)cc3nc2-c2ccccc2)cc(OC)c1OC
 : ., ., i, 2.2, -3.0, -2%, .
(54) Cc1cc(C(N)=O)c2cc(Br)ccc2n1
 : 27*, 0.64, ., ., -0.8, ?, 0.8
(55) COc1cc2nc(COc3ccccc3[N+](=O)[O-])oc(=O)c2cc1OC
 : 8.1, 0.7, i, 0.0, 1.0, -4%, 0.2
(56) CCC(O)(CC)C(=O)NN(C(=O)Nc1csc2c1CCCC2)c1ccccc1
 : -1.9, 0.67, ., ., 1.4, -31%, 4.2
(57) CC(NC(=O)c1ccccc1)C(=O)N/N=C/c1ccc(O)cc1 (stereo unspecified)
 : -1.2, ., i, -0.7, -0.3, ., .
(58) COc1ccc(NS(=O)(=O)c2cc(NC(=O)/C=C/c3cc(OC)c(OC)c(OC)c3)ccc2N2CCCCC2)cc1
 : -1.0, 0.7, ., ., -0.8, -6%, -9.7
(59) COc1cccc(-n2nnnc2SCC(=O)N2CCCc3ccccc32)c1
 : 4.1, 0.66, ., ., 1.0, 2%, 1.1
(60) Cc1ccc(CC2CC(=O)N(c3ccc(C)cc3)C2=O)cc1 (stereo unspecified)
 : -2.6, 0.73, i, -13, 3.7, 6%, 2.5

Entries of single compounds, quoted from the list. Values in the order: RanGTP-Impb inh | E coli growth | FGF22 binding | AF4-AF9 inh | HNF4A DNA FP | Vif TR-FRET | UCH37 DUB inh
Shown for COc1cc(Nc2nc3c(N)cc(C(F)(F)F)cc3nc2-c2ccccc2)cc(OC)c1OC : . | . | i | 2.2 | -3.0 | -2% | .
Shown for COc1ccc(NS(=O)(=O)c2cc(NC(=O)/C=C/c3cc(OC)c(OC)c(OC)c3)ccc2N2CCCCC2)cc1 : -1.0 | 0.7 | . | . | -0.8 | -6% | -9.7

(next part)
The line under a structure holds: RanGTP-Impb inh, E coli growth, FGF22 binding, AF4-AF9 inh, HNF4A DNA FP, Vif TR-FRET, UCH37 DUB inh
(61) CC1CC(C)CN(S(=O)(=O)c2ccc(NC(=O)CN3CCCCCC3)cc2)C1 (stereo unspecified)
 : ., 0.68, i, 0.7, 1.0, 6%, 4.3
(62) COc1ccccc1NC(=O)CC1C(=O)Nc2c1c(=O)n(C)c(=O)n2C (stereo unspecified)
 : 2.4, 0.72, ., ., 0.3, -1%, -1.4
(63) COCN(C#N)c1nc(OC)nc(OC)n1
 : -2.0, 0.72, i, 1.8, -3.4, 2%, 1.8
(64) Cc1noc(NS(=O)(=O)c2ccc(NC(=O)c3cc(=O)c4ccccc4o3)cc2)c1C
 : -2.3, 0.69, i, -1.6, -4.0, -11%, 8.2
(65) COCCCNC(=O)c1cn(CC(C)C)c(=O)c2c1c1ccccc1n2C
 : 6.2, 0.72, ., ., -1.0, -5%, -62
(66) CC(C)(C)c1ccc(C(=O)N2CCC2(C)C(=O)NCc2ccc3c(c2)OCO3)cc1 (stereo unspecified)
 : ., ., i, 0.6, -5.2, ., .

Values in list order from the entries so far.
Nos. 33–38 in E coli growth read 0.68, 0.71, 0.7, 0.66, 0.7, 0.68
Nos. 33–38 in HNF4A DNA FP read 1.2, -3.8, 24, 0.8, -0.6, 5.4
Nos. 33–38 in FGF22 binding read i, i, i, i, ., i
